NPYLR7 ag: mosquito NPYLR7 agonism. activation, % at 10 µM. 270,000 compounds, 0.15% hits. HEK293T NPYLR7/Galpha15, GCaMP6s calcium fluorescence; in the data active means activation above about 40%;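 further: 0% = vehicle and 100% = reference agonist at the receptor; some compounds past the cut are filed as inactive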
NPYLR7 ag max-min: recorded beside NPYLR7 ag, whose call it bears; activation, %; measured here: Max-Min RFU normalised activation; some inactives read as strong as hits;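 span of the calcium signal over five minutes; 0% = vehicle and 100% = native peptide agonist; compound fluorescence can raise it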
* hit, by the source's call; & = joins results of further samples. Not all compounds are listed (hit frequency here may not be typical).

SMILES	NPYLR7 ag max-min	NPYLR7 ag
C=C(C)CSc1nnc(NC(=O)COc2ccccc2)s1	10	-1
CC(NC(=O)OC(C)(C)C)c1ccc(N)cc1 (configuration not stated)	12	16
CC1(C)CC2CC(C)(CN2C(C(=O)NCCc2ccc(O)cc2)c2ccccc2)C1 (configuration not stated)	-3	1
COc1ccc(NC(=O)c2cnn3c(C(F)(F)F)cc(-c4cccs4)nc23)cc1OC	-3	-2
CNC(=O)[C@@]1(OCc2cccc(F)c2)CC(OCc2cccc(C(F)(F)F)c2)[C@@H]2OC(C)(C)O[C@@H]2C1 (some centres not stated)	26	26
Cc1sc2ncn(CC(=O)N(C)Cc3ccc(Br)s3)c(=O)c2c1C	-3	-1
CCCN1CCC(NC(=O)C(C)Sc2ccc(Br)cc2)CC1 (configuration not stated)	-10	-9
COCCn1cc(C(=O)N2CCN(CC(=O)NC(C)C)CC2)c2nn(-c3ccccc3)c(=O)c-2c1	-6	-3
O=C(O)c1ccccc1C(=O)N[C@H]1CO[C@H]2[C@@H]1OC[C@H]2OCc1ccccc1	-13	-6
CC(C)CCn1c(N2CCN(Cc3c(F)cccc3Cl)CC2)nc2c1c(=O)[nH]c(=O)n2C	21	1
O=C(CSCc1ncc[nH]1)NCCc1cc(F)cc(F)c1	-9	-8
O=C(Nc1ccc(S(=O)(=O)N2CCCC2)cc1)c1sc2ccccc2c1Cl	-12	-7
Cc1csc(C(C#N)C(=O)Cn2cc(C(F)(F)F)cc(Cl)c2=O)n1 (configuration not stated)	8	1
Cc1ccc(C(C)(C)NC(=O)C2CCCN2C(N)=O)cc1 (configuration not stated)	8	11
CN(c1ccccc1)S(=O)(=O)c1ccc(Cl)c(Cl)c1	-2	0
COc1ccc(C(=O)N2CCOC(CCCc3ccccc3)C2)c(O)c1 (configuration not stated)	-9	-3
O=C(CN1CCOCC1)C12CC3CC(CC(C3)C1)C2	5	6
COCc1ccccc1CNC(=O)CSc1cccc(C#N)c1	-1	1
Cc1cc(C)nc(NC(N)=NC2CCCCC2)n1	-12	-3
COc1ccc(C(=O)NCCc2csc3nc(-c4cccs4)nn23)cc1OC	-9	-9
Cc1cc(=O)n2nc(Nc3ccc(C(C)C)cc3)sc2n1	1	5
O=C(Cc1ccccn1)NCC1CCCN(Cc2ccccc2F)C1 (configuration not stated)	-2	2
C=CCOC(=O)c1[nH]c(C)c(C(C)=O)c1C	10	4
CCc1nc2c(OC)cccn2c1N(C)C(=O)COc1ccccc1	-9	5
Cc1cc(C)c(S(=O)(=O)N2CCN(C(=O)c3cnn(-c4ccccc4)c3)CC2)c(C)c1	17	12
COc1cc(C)ccc1S(=O)(=O)N1CCCN(Cc2cc(=O)c(OCc3ccc(SC)cc3)co2)CC1	-5	-1
Cc1cc(C)c(CNC(=O)C2CCN(C3CCCCC3)C2)c(=O)[nH]1 (configuration not stated)	-2	0
CC1(C)C[C@@H]1C(=O)N/C(=C\CCCCSC[C@H](N)C(=O)O)C(=O)O	-12	-5
CCOC(=O)c1cc(-c2cccc(NC(=O)c3cccs3)c2)n(-c2cccc(F)c2)n1	6	8
COC(=O)c1cccc(-c2cc(Cl)c3c(c2)CC(CNC(=O)Cn2nc(C)nc2C)O3)c1 (configuration not stated)	0	3
CC(CCC(=O)O)[C@H]1CCC2C3C(C[C@H](O)[C@@]21C)[C@@]1(C)CC[C@@H](O)C[C@H]1C[C@H]3O (some centres not stated)	-12	-10
CC(C)N(C)C(=O)C1CSCN1C(=O)c1ccc(S(=O)(=O)C(F)(F)F)cc1 (configuration not stated)	2	4
CN(C(=O)c1ccsc1)C(Cc1ccccc1)C1CCN(C(=O)c2cnn(-c3ccccc3)c2)CC1 (configuration not stated)	-7	-2
CCN(CC)S(=O)(=O)c1ccc(NC(c2ccccc2)C2CC2)c([N+](=O)[O-])c1 (configuration not stated)	-1	5
Cc1ccc(CNC(=O)Nc2c[nH]c3ccccc23)cc1	-7	-3
C=C1N(C)c2cc([N+](=O)[O-])c(N)cc2C1(C)C	-12	-11
CCCN(Cc1cc(NC(=O)c2ccccc2Cl)ccc1N(C)C)C(=O)c1cccs1	13	2
Cc1nn(-c2cccc(F)c2)c(N2CCN(C)CC2)c1CN(CCC(C)C)C(=O)c1ccccc1Cl	9	1
Cc1cc2nc(-c3ccccc3)c(N3CCN(C(=O)c4cncc(Br)c4)CC3)nc2cc1C	-1	6
O=C(c1ccc(=O)n(Cc2ccc(F)cc2)n1)N1CCCC1	0	2
CC(=O)c1cccc(NCN2C(=O)c3ccc([N+](=O)[O-])cc3C2=O)c1	4	4
CCCCn1c(CN2CCC(Oc3ccccc3OC)CC2)cnc1S(=O)(=O)CC	7	14
O=C(NCc1ccccn1)c1ccc(-c2cc(-c3ccc(Cl)cc3Cl)[nH]n2)cc1	-9	-1
CC(C)(C)c1cn2c3ccccc3nc2n1CCCO	-25	-16
COc1ccc(OC)c(C2C(C(=O)OC(C)C)=C(C)NC3=C2C(=O)CC(c2ccc(Cl)cc2)C3)c1 (configuration not stated)	5	2
NC(=O)C1CCN(C2CC(=O)N(c3ccc(C(=O)O)cc3)C2=O)CC1 (configuration not stated)	-1	1
O=C1c2cccnc2OC(CN2CCOCC2)CN1C1CCCCC1 (configuration not stated)	8	-4
CCc1c(C)nc(-n2nc(C)cc2NC(=O)c2cccc([N+](=O)[O-])c2)[nH]c1=O	7	13
CCn1nc(C)c(C(=O)N2CCc3c(ncnc3N3CCOCC3)C2)c1C	4	0
CN1CCN(C(=O)c2cc(-c3ccncc3)n[nH]2)CC1C(=O)O (configuration not stated)	4	4

Additional records follow:
SMILES	NPYLR7 ag max-min	NPYLR7 ag
O=C(NC1CCCCNC1=O)c1cc2n(n1)CCN(Cc1ccccc1F)C2=O (configuration not stated)	25	20
CCCOc1ccc(-c2ccc(-c3noc(-c4ccc(OCC)cc4)n3)cc2)cc1	-9	-5
CC(C)n1ccc(C(=O)NS(=O)(=O)Cc2ccccc2Cl)n1	7&-22	0&-22
CC(=O)Nc1nnc(N2CCc3ccccc3C2)s1	10&-2	12&-2
CCN(CC)CCn1c(C)cn2c3c(=O)n(Cc4ccc(F)cc4)c(=O)n(C)c3nc12	-7	-8
CC(C)CCOP(=O)(c1ccc(N(C)C)cc1)C(O)c1cccnc1 (configuration not stated)	6	1
FC(F)(F)c1nnc2c3ccccc3c(NC3CC3)nn12	1	4
CNC(=O)C1(NC(=O)c2cccc(S(=O)(=O)N(C)C(C)C)c2)CCCCC1	2	6
Cc1ccc(NC(=O)c2ccc(CSc3nc(Cl)cc(N4CCN(c5cccc(C(F)(F)F)c5)CC4)n3)cc2)cc1C	21	16
CCNS(=O)(=O)NCc1ccc(N2CCN(CC)CC2)c(F)c1	4	6
Cc1cccc(-c2nnc(SCc3ccccc3Cl)n2-c2ccccc2)c1	16	8
Cc1cccc(COc2coc(CN3CCc4ccccc4C3)cc2=O)c1	-2	-1
CCNc1ncc(CN2CCCC(CCc3ccccc3F)C2)cn1 (configuration not stated)	6	10
COc1cc(C2NC(=O)NC3=C2C(=O)N(C)C3)cc(OC)c1OC (configuration not stated)	10	7
CCN(CC)S(=O)(=O)CCNC(=O)c1cc(C)n(C(C)C)c1C	5	5
NC(=O)Cn1cnc2c(nnn2-c2ccc(F)cc2)c1=O	13	10
CCOC(=O)[C@@H]1C[C@@H]2O[C@H]1[C@H]1CN(C(=O)COc3ccccc3)C[C@H]1[C@H]2O	4	-1
O=C(c1cccc(-n2cccn2)c1)N1Cc2cnn(CCO)c2C1	1	3
CC(NC(CO)CO)C1=CCCCC1 (configuration not stated)	4	6
Cc1[nH]n(-c2nc(-c3ccccc3)cs2)c(=O)c1N=Nc1ccc(Cl)c([N+](=O)[O-])c1	-9	-5
CC(=O)NC1=NN(C(C)=O)C2(S1)C(=O)N(Cc1ccc(C)cc1)c1c(C)cccc12 (configuration not stated)	3	5
NC(=O)CCN(C(=O)c1ccc(Br)cc1)c1ccccc1	-4	0
Cc1cc(C)c(NC(=O)CN(C)C(=O)c2cc(F)ccc2F)c(C)c1	-2	1
COC(=O)c1ccc(CN2CC[C@@]3(C2)[C@H](O)CN(c2ccccc2)S3(=O)=O)cc1	19	7
Cc1cccnc1C(NC(=O)C1CCN(C(=S)Nc2ccc(Cl)cc2)CC1)c1ccc(F)cc1 (configuration not stated)	-3	4

As a short view, some entries already given:
SMILES	NPYLR7 ag max-min	NPYLR7 ag
COC(=O)c1ccc(CN2CC[C@@]3(C2)[C@H](O)CN(c2ccccc2)S3(=O)=O)cc1	19	7
Cc1cccnc1C(NC(=O)C1CCN(C(=S)Nc2ccc(Cl)cc2)CC1)c1ccc(F)cc1 (configuration not stated)	-3	4

The listing picks up with the two entries that preceded the break.
SMILES	NPYLR7 ag max-min	NPYLR7 ag
COC(=O)c1ccc(CN2CC[C@@]3(C2)[C@H](O)CN(c2ccccc2)S3(=O)=O)cc1	19	7
Cc1cccnc1C(NC(=O)C1CCN(C(=S)Nc2ccc(Cl)cc2)CC1)c1ccc(F)cc1 (configuration not stated)	-3	4
CCc1ccc(S(=O)(=O)N(C(=O)c2ccncc2)c2ccc3oc(C)c(C(C)=O)c3c2)cc1	13	3
CCOC(C)C(=O)Nc1cc(C(=O)OC)n(Cc2ccccc2)c1 (configuration not stated)	-3	1
CC(C)COC(=O)N1CCCCC1c1cc(C(=O)NCc2ccccc2)no1 (configuration not stated)	-1	1
Clc1nc(-c2ccccc2)ncc1-c1ccccc1	5	6
CC(=O)N1N=C(c2cccs2)CC1c1cc2cc3c(cc2nc1Cl)OCCO3 (configuration not stated)	7	5
CCc1cc2c(=O)c(Oc3ccc(-c4ccccc4)cc3)coc2cc1OC(C)=O	2	4
O=C1CC(c2cccs2)c2c(c(C(=O)O)cn2-c2ccccc2F)N1 (configuration not stated)	21	2
O=C(Nn1c(-c2cccs2)nc2sc3c(c2c1=O)CCCC3)c1cccs1	3	4
COCC1N(C(=O)c2cc(C)nn2C)C2CCC1(O)CC2 (configuration not stated)	26	26
Cc1ccc(S(=O)(=O)NC(=O)/C=C/c2nccs2)s1	-8	-7
CCCCCCSc1nc(-c2ccccc2)cc(-c2ccccc2OC)c1C#N	-8	-4
CCOC(=O)c1nn(-c2ccccc2)c(=O)cc1N1CCN(C(c2ccccc2)c2ccccc2)CC1	-1	4
CC(C)=CC1C(CO)C1(C)C (configuration not stated)	-9	-6
CCOc1cccc(CN(C(=O)OC(C)(C)C)C2CCC(C(=O)N3CCOC(COc4ccc(OC)cc4)C3)CC2)c1 (configuration not stated)	4	5
CC(C)c1ccc(Oc2cnn(C)c(=O)c2Nc2cccc(C(=O)NCc3cccnc3)c2)cc1	5	7
COc1ccc(-c2c(C)nn(-c3ccccc3)c2C)c(C(=O)N2CCN(C(=O)c3ccco3)CC2)c1	-11	-8
N#Cc1cc2c([nH]c1=S)CCCCC2	4&-3	-2&-1
O=c1c2c(cnn2-c2ccccc2)c(C2CC2)nn1Cc1ccccc1	0	1
O=S1(=O)c2cccc3cccc(c23)N1CCSCc1ccccc1	-5	-3
COc1cc(NC(=O)C2(C)CCCN2CC(C)C)cc(OC)c1OC (configuration not stated)	0	1
CC(Cc1ccsc1)NC(=O)c1coc(COc2ccc3c(c2)OCO3)n1 (configuration not stated)	0	2
COc1cc(C2=NC(=Cc3cnn(-c4ccccc4)c3)C(=O)O2)cc(OC)c1OC	5	4
CC(C)(C)C(C)(O)C#CCN1CCOCC1 (configuration not stated)	2	3
O=C(NNc1nc(-c2ccccc2)c2cc(Br)ccc2n1)c1cccc([N+](=O)[O-])c1	3	-9
CN(CC#N)C1CCN(c2cccc(OC(F)(F)F)c2)C1=O (configuration not stated)	1	3
CN1CCN(NC(=O)CCN2C(=O)/C(=C/c3ccc(Cl)cc3)SC2=S)CC1	-9	-6
C=CCNC(=S)NNC(N)=O	-1	2
Cc1cc(=O)n2nc(N3CCCC(C(=O)NC4CC4)C3)sc2n1 (configuration not stated)	2	3
CCC(C(=O)Nc1nc(CN2CCc3ccccc3C2)cs1)c1ccccc1 (configuration not stated)	-12	-10
O=C(C=Cc1cccs1)N1CCOCC1	-14	-9
Cc1cccc(NC(=O)CCC2CCN(C(=O)CSc3nncn3C)CC2)c1	9&0	17&6
Cc1cccc(-c2noc(CN(C)C(=O)c3c(C)cc(C)n(C)c3=O)n2)c1	13	-1
CCCn1c(C)cc(-c2csc(NC(=O)C3CSC4(C)CCC(=O)N34)n2)c1C (configuration not stated)	3	11
COc1ccc(/C=C/C(=O)N2CCCC(C(=O)c3ccccc3OC)C2)cc1OC (configuration not stated)	1&-2	4&-1
COc1ccccc1Cn1c(C)c(C(=O)NCc2ccc(C(C)C)cc2)sc1=O	-4	0

3 structures out of the list, arranged by formula weight, descending.
SMILES	NPYLR7 ag max-min	NPYLR7 ag
CN1CCN(NC(=O)CCN2C(=O)/C(=C/c3ccc(Cl)cc3)SC2=S)CC1	-9	-6
COc1ccccc1Cn1c(C)c(C(=O)NCc2ccc(C(C)C)cc2)sc1=O	-4	0
C=CCNC(=S)NNC(N)=O	-1	2

Compound activity from PubChem.
